High-throughput results as filed in PubChem.
Marburg entry inh = inhibitors of Marburg virus binding or cell entry; Marburg virus pseudotyped entry inhibition, cell reporter; control for the full effect not named in the record; about a third of the inactives were read at about 46 µM; Potency, µM (highest dose often 37.8 µM), without a hit: top-dose activity change, negative = inhibition, most hits filed as inhibitors; 1.8% of 300,000 active; active = well fitted inhibition curve with a large enough effect; inconclusive = small, poorly fitted or top-dose-only effect, or effect the other way; inactive = flat fitted curve, though single readings scatter; tested in HEK293 cells; about a fifth of its hits are not listed in these tables; also: % is scaled to controls: 0 for no effect and ±100 for the full control effect; luciferase read-out
SARS PLP yeast = SARS-CoV PLP inhibition in yeast; S. cerevisiae expressing SARS-CoV PLpro, growth rescue; control for the full effect not named in the record; Potency, µM (series often up to 32.9 µM), for the others: top-dose activity, positive = growth rescue; 0.19% of 330,000 active; AID 485353; active means well fitted rising curve with a large enough effect; inconclusive means small, poorly fitted or top-dose-only effect; inactive means no such curve, though single readings can be large or run the other way; also: 0% is about no effect; nearly all actives have a fitted effect of over 55% in size; growth read by luminescence after 48 h
Lassa entry inh = inhibitors of Lassa virus binding or cell entry; Potency, µM (top dose mostly 37.9 µM), without a hit: at the top dose activity change, negative = inhibition, hits mostly inhibitors; 1.2% of 300,000 active; Lassa virus pseudotype entry inhibition, cell reporter; control for the full effect not named in the record; active means well fitted inhibition curve with a large enough effect; inconclusive means small, poorly fitted or top-dose-only effect, or effect the other way; inactive means flat fitted curve, though single readings scatter; tested in HEK293 cells; also: % is scaled to controls: 0 for no effect and ±100 for the full control effect; nearly all actives have a fitted effect of over 50% in size; luciferase read-out
StopGo reporter = FMDV 2A StopGo reporter, luciferase signal; human cells with a luciferase reporter of 2A StopGo recoding; control for the full effect not named in the record; Potency, µM (highest dose often 57.9 µM), without a hit: top-dose signal change, negative = less light; 1.2% of 410,000 active; AID 1159524; active = well fitted falling curve with a large enough effect; inconclusive = small, poorly fitted or top-dose-only effect; inactive = no such curve, though single readings can be large or run the other way; tested in HEK293T cells; also: % is scaled to controls: 0 for no effect and ±100 for the full control effect; nearly all actives have a fitted effect of over 45% in size; luciferase light after 4 h
Cruzain inh noDet = blocks cruzain activity in detergent-free assay | P25779 | purified cruzain, Z-FR-AMC fluorescence, no detergent | Potency, µM, inactives show max response, negative = inhibition, hits mostly inhibitors | 2.3% of 200,000 active | AID 1476;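 also: plate controls were enzyme without inhibitor for no effect and buffer without enzyme for full effect; nearly all actives have a fitted effect of over 40% in size; top concentration of the series not given in the record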
Target sequence (P25779 123-467 limits assumed): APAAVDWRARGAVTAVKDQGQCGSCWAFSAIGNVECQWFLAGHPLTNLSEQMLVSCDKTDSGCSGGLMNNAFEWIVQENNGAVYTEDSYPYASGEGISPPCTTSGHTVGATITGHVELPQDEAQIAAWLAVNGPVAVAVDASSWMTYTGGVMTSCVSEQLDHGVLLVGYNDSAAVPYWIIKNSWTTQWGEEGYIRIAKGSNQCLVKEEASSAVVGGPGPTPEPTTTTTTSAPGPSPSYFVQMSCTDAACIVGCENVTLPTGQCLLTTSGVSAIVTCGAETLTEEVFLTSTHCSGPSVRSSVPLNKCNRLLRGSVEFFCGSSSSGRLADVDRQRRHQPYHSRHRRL
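Purified cruzain at 1.5 nM, pre-incubated 15 min with compound at room temperature in 100 mM sodium acetate pH 5.5, 5 mM DTT, 0.00005% Triton X-100. Reaction started with 2 uM Z-FR-AMC; AMC fluorescence increase over 60 s gives rate.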
NS1 function inh = blocks influenza NS1 protein function; Potency, µM (highest dose often 46.1 µM), without a hit: top-dose activity, positive = more growth; AID 2326; S. cerevisiae slowed by influenza A NS1, growth recovery by OD600; 0.4% of 270,000 active; active means well fitted rising curve with a large enough effect; inconclusive means small, poorly fitted or top-dose-only effect; inactive means no such curve, though single readings can be large or run the other way; also: nearly all actives have a fitted effect of over 50% in size
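Compounds were scored for reversing the slow growth caused by influenza A NS1 in S. cerevisiae, measured by optical density at 600 nm. Assay medium contained 2% galactose at pH 6.0; NS1-free yeast of the same strain were the positive control.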
RE007 growth inh = less growth of the S. pombe RE007 Vpr strain; 0.21% of 360,000 active; AID 651644; S. pombe RE007 Vpr strain, BacTiter-Glo ATP luminescence, 24 h; control for the full effect not named in the record; Potency, µM (titrated, usually from 92.2 µM), inactives show at the top dose activity change, negative = less growth; active = well fitted falling curve with a large enough effect; inconclusive = small, poorly fitted or top-dose-only effect; inactive = no such curve, though single readings can be large or run the other way;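 also: % is scaled to controls: 0 for no effect and ±100 for the full control effect; nearly all actives have a fitted effect of over 50% in size; the assay follows cell death caused by Vpr and the record does not say whether a fall means rescue or toxicity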
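Fission yeast strain RE007, carrying one chromosomally integrated HIV-1 vpr copy, was seeded at OD 0.01 in PMG+AL medium with 23 nL pinned compound. After 24 h at 30 °C and 99% humidity, viability was read by BacTiter-Glo luminescence.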
Cruzain inh Det = inhibitors of Trypanosoma cruzi cruzain with detergent. P25779. purified cruzain, Z-FR-AMC fluorescence, 0.01% Triton. Potency, µM, inactives show max response, negative = inhibition, most hits filed as inhibitors. 0.43% of 200,000 active. AID 1478;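 also: plate controls were neutral wells for no effect and buffer without enzyme for full effect; nearly all actives have a fitted effect of over 40% in size; top concentration of the series not given in the record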
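Cruzain (1.5 nM) preincubated 15 min at RT with compound in 100 mM sodium acetate pH 5.5, 5 mM DTT, 0.01% Triton X-100. Reaction started with 2 uM Z-FR-AMC; AMC fluorescence (ex 360/em 450 nm) change over 60 s gave rate.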
* marks the source's active call; other numbers are inactive results; ? = inconclusive; · = no result given; & = joins results of further samples; [ ] = another dose, or the depositor's remark. Unless noted, calls follow the shape of the dose curve; as a rule, active = well fitted curve in the direction sought with a large enough effect; inconclusive = small, poorly fitted or top-dose-only effect, or another doubt; inactive = no such curve, though single readings can be large; an effect the other way counts as inactive or inconclusive. Potency is read from the fitted curve at half-maximal effect.

SMILES	Marburg entry inh	SARS PLP yeast	Lassa entry inh	StopGo reporter	Cruzain inh noDet	NS1 function inh	RE007 growth inh	Cruzain inh Det
CN(C)C(=O)Cn1c(SCC(=O)N2CCCc3ccccc32)nc2ccccc21	5%	12%	7%	·	0%	-5%	-3%	1.2%
O=c1c(N2CCN(c3cccc(Cl)c3)CC2)csc2ccc(Cl)cc12	·	·	-26%[46.1 µM]	-7%	-11%	·	·	-11%
COC(=O)C1=C(C)NC(=O)CC1c1ccccc1 (stereo not given)	-2%	11%	9%	-5%	-5%	1%	-1%	-2.0%
COc1ccc(N2CCN(C(=O)c3ccccc3N(C)S(=O)(=O)c3ccccc3)CC2)cc1	?	-4%	?	22%	·	-11%	5%	·
CC(C)NC(=O)CC1(C(=O)NCc2ccc(Cl)cc2)CCCC1	·	1%	·	-13%	·	0%	-5%	·
O=C1CN(C(=O)COC(=O)Cc2ccsc2)c2ccccc2N1	4%	8%	-4%	24%	-3%	2%	2%	-2.0%
Cc1ccsc1-c1nc(CSCC(=O)NCc2ccc3c(c2)OCO3)c(C)o1	·	-31%	·	0%	-6%	-104%	-9%	-4.7%
Cc1ccc(S(=O)(=O)N(CC(=O)O)c2ccc(Cl)c(C(F)(F)F)c2)cc1	?	0%	-8%	-4%	·	4%	1%	·
CS(=O)(=O)c1ccc2nc(NC(=O)C3COc4ccccc4O3)sc2c1 (stereo not given)	?	-6%	?	28%	-18%	-4%	-15%	-6.6%
O=C1CSC(c2ccccc2)N1c1cccnc1 (stereo not given)	27%	0%	8%	-17%	·	4%	-6%	·
O=C(O)C1CC=CCC1C(=O)Nc1ccccc1C(=O)N1CCN(c2ccc(F)cc2)CC1 (stereo not given)	22%	-2%	-8%	-20%	1%	8%	-5%	0.2%
O=C(NCCNC(=O)C1CC2CCC1C2)C1CC2CCC1C2 (stereo not given)	12%	-1%	18%	26%	0%	2%[9.22 µM]	6%	-0.3%
COc1cc2ccccc2cc1C(=O)Nc1ccc(N2CCN(C)CC2)cc1	?	-12%	?	30%[activator]	-10%	-12%	1%[3.69 µM]	-4.6%
O=C(Cc1ccccc1)Nc1c2c(nn1-c1cccc(Cl)c1)CS(=O)(=O)C2	0%	5%	0%	-13%	-15%	-4%	-1%	-1.3%
CC(=O)Nc1ccc(S(=O)(=O)NC(C)C(=O)NC(C)c2ccccc2)cc1 (stereo not given)	-4%[46.1 µM]	4%	8%	1%	·	7%	19%	·
O=C(COC(=O)c1ccccc1)NCCC1=CCCCC1	-2%	0%	?	25%	·	·	22%	·
O=C(NCc1cccnc1)Nc1cccc(NC(=O)NCc2cccnc2)c1F	14%[46.1 µM]	-4%	1%[46.1 µM]	12%	·	4%	1%	·
Cn1c(=O)c2c(nc(SCc3ccccc3F)n2C)n(C)c1=O	11%	-2%	8%	-23%	·	-1%	15%	·
O=S(=O)(c1cccc(-c2nnc(-c3ccc(Br)cc3)o2)c1)N1CCCCCC1	-6%	4%	-11%	-13%	0%	-11%	-14%[3.69 µM]	3.4%
COc1cc(NC(=O)CNc2cccc(S(=O)(=O)N3CCCC3)c2)cc(OC)c1	·	3%	·	-28%	·	13%	-15%	·
O=C(O)/C=C/C(=O)Nc1cccnc1	?	7%	2%	0%	-8%	1%	0%	-2.1%
O=C(NCC(c1ccco1)N1CCc2ccccc2C1)C(=O)Nc1ccc(F)cc1F (stereo not given)	?	1%	-19%	-13%	·	·	2%	·
Cc1cc(C)n(CC(=O)n2nc(C)cc2C)n1	17%&17%	5%	0%	10%	-4%	1%	-3%	3.4%
Cc1cc(C)c2c(N)c(C(=O)NN)sc2n1	·	-2%	·	-4%	·	15%	3%	·
NC(=O)CN1C(=O)/C(=c2\sc3nc(=O)c(Cc4ccccc4)nn3c2=O)c2ccccc21	?	2%	-2%[46.1 µM]	-5%	·	-1%	-3%	·
CN(C)c1nc(Nc2ccccc2)nc(Oc2ccc(=O)[nH]n2)n1	-7%	-12%	-1%	15%	8%	1%	14%	-1.9%
CCOc1ccc(/C=C/C(=O)N2CCOCC2)cc1OC	·	0%	·	12%	·	-1%	-8%	·
COc1ccc(C(CNC(=O)c2cccc(NS(=O)(=O)c3ccc(Br)cc3)c2)N(C)C)cc1 (stereo not given)	?	-7%	?	-12%	·	·	-2%	·
CCCCOC(=O)c1cccc(NC(=O)/C=C/c2ccccc2Cl)c1	·	·	-28%[46.1 µM]	?	-12%	·	·	-6.1%
Cc1cc(C)c[n+](CC(=O)c2ccc(C)c([N+](=O)[O-])c2)c1	·	3%	·	-20%	·	?	-8%	·

Record cards, from the list above. Screens in order: Marburg entry inh	SARS PLP yeast	Lassa entry inh	StopGo reporter	Cruzain inh noDet	NS1 function inh	RE007 growth inh	Cruzain inh Det
`COc1ccc(N2CCN(C(=O)c3ccccc3N(C)S(=O)(=O)c3ccccc3)CC2)cc1` in the list: ?	-4%	?	22%	·	-11%	5%	·
`O=C(NCCNC(=O)C1CC2CCC1C2)C1CC2CCC1C2` (stereo not given) in the list: 12%	-1%	18%	26%	0%	2%[9.22 µM]	6%	-0.3%
`Cn1c(=O)c2c(nc(SCc3ccccc3F)n2C)n(C)c1=O` in the list: 11%	-2%	8%	-23%	·	-1%	15%	·

Later entries.
SMILES	Marburg entry inh	SARS PLP yeast	Lassa entry inh	StopGo reporter	Cruzain inh noDet	NS1 function inh	RE007 growth inh	Cruzain inh Det
COC(=O)CCC(=O)c1oc2ccc(Br)cc2c1N	?	-18%	16%	22%	?	-12%	-11%	-2.9%
O=S(=O)(NCCCc1ccccc1)c1ccccc1	-6%	-4%	-2%	15%	0%	-93%	20%	1.5%
COc1cc([N+](=O)[O-])ccc1NC(=O)/C=C\C(=O)O	·	16%	·	2%	·	2%	6%	·
Cc1ccc(C(=O)Nc2ccc(Br)cc2)cc1S(=O)(=O)N1CCOCC1	·	·	-25%[46.1 µM]	?	0%	·	·	-0.9%
Cc1ccc(C)c(N2CCN(C(=O)CN3CCSc4ccccc43)CC2)c1	·	·	?	0%	-2%	·	·	-6.8%
COc1ccc(C(NC(=O)c2ccc(F)cc2)c2ccccc2)cc1 (stereo not given)	6%	2%	?	-13%	-3%	-10%	10%	-2.0%
COc1ccc(CNC(=O)COc2cccnc2[N+](=O)[O-])cc1	·	-2%	·	22%	·	0%	-5%	·
Cc1cc(C(=O)COC(=O)Cc2n[nH]c(=O)c3ccccc23)c(C)n1-c1ccc2c(c1)OCO2	-23%	-31%	?	-7%	25µM*	14%	-3%	-1.8%
COc1cccc(NS(=O)(=O)c2nc3nc(C)cc(C)n3n2)c1	·	-8%	·	32%[activator]	1%	9%	9%	-0.3%
Cc1c(N=Cc2ccco2)c(=O)n(-c2ccccc2)n1C	15%	0%	2%	-5%	-6%	-5%	2%	-0.3%
Cc1cc(C(=O)CC#N)c(C)n1-c1ccc(OC(F)F)cc1	-18%	-2%	-10%	?	-1%	?	5%	4.0%
Cc1ccccc1OCCN1CCC(Cc2ccccc2)CC1	·	2%	·	-23%	·	-2%	-25%	·
Cc1ccsc1C(=O)OCC(=O)N1CC(C)CC(C)C1 (stereo not given)	?	-2%	17%	8%	·	·	16%	·
O=C(C1=C[C@H](C2CC2)C[C@H](OCCCCO)O1)N1CCOCC1	·	-1%	·	-7%	·	1%	5%	·
CCCN=C(C)C1=C(O)c2ccccc2C1=O	?	-14%	?	17%	-5%	-7%	-5%	-6.3%
COC(=O)C1CCN(C(=O)c2ccc(OC)c(S(=O)(=O)N3CCCc4ccccc43)c2)CC1	-8%	2%	5%	-13%	·	·	0%	·
CC1CCN(C(=O)Cn2ncc3c4ccccc4n(C)c3c2=O)CC1	2%[46.1 µM]	-1%	13%	21%	·	4%	2%	·
CC(NC(=O)c1sc2ncccc2c1-n1cccc1)c1ccccc1 (stereo not given)	·	·	6%[46.1 µM]	15%	-22%	·	·	-3.4%
Cc1cc[n+](-c2ccccc2)c2ccccc12	?	-7%	?	-23%	·	·	-8%	·
O=C(NCc1ccco1)c1cc(-c2ccccc2)c(N2CCOCC2)s1	?	11%	-3%	-24%	-6%	-2%	-13%	-7.9%
COC(=O)c1onc(-c2c(Cl)cccc2Cl)c1C(=O)OC	-14%[46.1 µM]	1%	14%	0%	·	-5%	15%	·
COC(=O)c1ccccc1NC(=O)c1oc2ccc3c(c2c1C)C(=O)CC(C)(C)O3	·	·	0%[46.1 µM]	18%	-2%	·	·	1.0%
O=C(NC(=S)N1CCN(c2ccccc2)CC1)c1ccco1	8%	?	16%	-10%	·	·	2%	·
COC(=O)COc1c(/C=C\c2nc(O)c([N+](=O)[O-])c(=O)[nH]2)cccc1OC	·	5%	·	4%	·	0%	-8%	·
CC1(c2nnc(Cc3ccccc3)o2)CC(c2cccc(Cl)c2)=NO1 (stereo not given)	·	0%	·	-9%	·	-10%	-13%	·
COc1cccc(CNC(=O)c2ccc(C3SCCS3)cc2)c1	·	-9%	·	22%	·	-9%	12%	·
O=C(Nc1ccc(Nc2ccccc2)cc1)c1ccccc1F	?	-10%	-27%[46.1 µM]	20%	·	-32%	?	·
CCn1c(=O)n(-c2ccc(F)cc2)c(=O)c2sc3ccccc3c21	3%[46.1 µM]	·	1%[46.1 µM]	-12%	12%	·	·	-1.4%
O=S1(=O)CCN(Cc2cccc(C(F)(F)F)c2)CC1	18%[46.1 µM]	-6%	·	16%	·	·	50%	·
O=C(O)COc1ccccc1C1Nc2ccccc2-c2nnc(SCc3ccc(Cl)cc3)nc2O1 (stereo not given)	8%[46.1 µM]	·	15%[46.1 µM]	9%	3%	·	·	-6.1%
